# Source: PubChem BioAssay
# uPA surface inh: qHTS for Inhibitors of Cell Surface uPA Generation; cell surface uPA generation assay, qHTS; Potency, µM (highest dose often 38.3 µM), without a hit: top-dose activity change, negative = inhibition, actives largely listed as inhibitors; hit rate 0.31% among 330,000; AID 540303, 2011; active means well fitted inhibition curve with a large enough effect; inconclusive means small, poorly fitted or top-dose-only effect; inactive means no such curve, though single readings can be large or run the other way; tested in mouse RAW 264.7 cells; further: on the % scale 0 is the no-effect control and ±100 the full control effect; nearly all actives have a fitted effect of over 55% in size
# MBNL1 CUG block: qHTS Assay for Inhibitors of MBNL1-poly(CUG) RNA binding; Muscleblind-like protein 1 (Homo sapiens), Q9NR56; hit rate 0.036% among 280,000; Potency, µM (highest dose often 57.5 µM), for the others: at the highest dose activity change, negative = inhibition, hits mostly inhibitors; TR-FRET MBNL1-His/biotin-(CUG)12 binding, 665/545 ratio; active means well fitted inhibition curve with a large enough effect in the signal ratio, with a control signal flat, not every such curve was filed as active; inconclusive means small, poorly fitted or top-dose-only effect, or effect the other way, or a change in a side signal; inactive means no such curve, though single readings can be large or run the other way; the % refers to the signal ratio; further: on the % scale 0 is the no-effect control and ±100 the full control effect
# Target sequence (Q9NR56 whole entry, looked up): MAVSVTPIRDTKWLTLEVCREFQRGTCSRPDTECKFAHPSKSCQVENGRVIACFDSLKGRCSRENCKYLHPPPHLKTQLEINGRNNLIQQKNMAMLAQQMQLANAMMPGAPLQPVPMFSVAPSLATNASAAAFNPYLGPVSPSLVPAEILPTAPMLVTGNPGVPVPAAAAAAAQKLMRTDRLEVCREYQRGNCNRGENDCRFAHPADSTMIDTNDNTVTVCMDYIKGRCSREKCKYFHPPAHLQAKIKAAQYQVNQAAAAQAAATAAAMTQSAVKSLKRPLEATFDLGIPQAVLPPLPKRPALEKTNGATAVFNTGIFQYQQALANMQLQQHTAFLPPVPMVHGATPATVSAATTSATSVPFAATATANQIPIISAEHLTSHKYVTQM
#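 TR-FRET between His-tagged MBNL1 and biotin-(CUG)12 RNA, detected with Tb anti-His antibody (0.055 ng/ul) and streptavidin-XL665 (5 nM), 60 min at room temperature. Compounds titrated 92 nM to 58 uM; 665/545 nm ratio normalized to buffer and complex controls.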
# RORgamma inh: qHTS for inhibitors of ROR gamma transcriptional activity | Potency, µM (highest dose often 53.6 µM), inactives show at the highest dose activity change, negative = inhibition, most hits filed as inhibitors | Nuclear receptor ROR-gamma (Mus musculus), P51450 | hit rate 5.4% among 310,000 | Drosophila S2 Gal4-RORgamma UAS-luciferase reporter, 20 h | AID 2551, 2010; further: on the % scale 0 is the no-effect control and ±100 the full control effect; nearly all actives have a fitted effect of over 60% in size
# Target sequence (P51450 whole entry, looked up, the tested form may be a part): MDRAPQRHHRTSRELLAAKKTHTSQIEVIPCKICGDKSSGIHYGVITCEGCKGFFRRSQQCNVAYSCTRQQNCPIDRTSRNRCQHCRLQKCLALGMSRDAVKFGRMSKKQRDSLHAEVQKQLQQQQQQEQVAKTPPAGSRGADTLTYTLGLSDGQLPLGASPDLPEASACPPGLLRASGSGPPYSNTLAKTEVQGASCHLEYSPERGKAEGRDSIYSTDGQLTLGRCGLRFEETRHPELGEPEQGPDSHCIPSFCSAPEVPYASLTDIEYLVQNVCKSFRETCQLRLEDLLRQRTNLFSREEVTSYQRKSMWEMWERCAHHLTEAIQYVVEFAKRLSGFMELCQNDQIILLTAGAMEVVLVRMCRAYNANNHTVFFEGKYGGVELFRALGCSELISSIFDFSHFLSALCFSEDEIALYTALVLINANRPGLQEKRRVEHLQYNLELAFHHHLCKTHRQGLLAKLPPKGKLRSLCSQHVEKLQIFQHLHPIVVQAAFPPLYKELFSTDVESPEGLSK
#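 Using a luciferase readout, inhibitors were identified by reduced reporter activity in Drosophila cells coexpressing a copper-inducible Gal4–ROR gamma fusion and UAS-driven Photinus luciferase, incubated 20 hr after 700 uM copper sulfate.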
# FLuc modulator: qHTS profiling assay for firefly luciferase inhibitor/activator using purifed enzyme and Km concentrations of substrates (counterscreen for miR-21 project); AID 588342, 2011; Luciferin 4-monooxygenase (Photinus pyralis), P08659; hit rate 6.9% among 360,000; Potency, µM (highest dose often 57.5 µM), for inactives: at the top dose activity change, negative = inhibition, hits mostly inhibitors; purified FLuc, Km substrates, luminescence inhibition;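 further: plate controls were vehicle for no effect and reference inhibitor for full effect; nearly all actives have a fitted effect of over 55% in size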
#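 Purified P. pyralis luciferase, 10 nM final, with Km-level 10 uM D-luciferin and 10 uM ATP in 50 mM Tris acetate pH 7.5, 10 mM Mg acetate, 0.01% Tween-20, 0.05% BSA; 6-point qHTS titration about 60 µM downward; luminescence read.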
# VP16 counter: VP16 counterscreen qHTS for inhibitors of ROR gamma transcriptional activity; Drosophila S2 Gal4-VP16 UAS-luciferase, luminescence, 20 h; Potency, µM (doses to about 53.6 µM), without a hit: at the highest dose activity, negative = inhibition, most hits filed as inhibitors; hit rate 3.5% among 310,000;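 further: Gal4-VP16 expression switched on by copper sulfate through the metallothionein promoter; on the % scale 0 is the no-effect control and ±100 the full control effect; nearly all actives have a fitted effect of over 50% in size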
# BRCA1 expr act: qHTS Assay to Identify Small Molecule Activators of BRCA1 Expression. Potency, µM (titrated, usually from 46.1 µM), for inactives: at the top dose activation, most hits filed as activators. MCF7-BRCA1-FFLuc reporter, luminescence, 48 h; response scale: scaled: vehicle 0%, 10 µM genistein 100%. hit rate 1.1% among 380,000; further: nearly all actives have a fitted effect of over 80% in size; some results filed as inactive show a strong effect at the top dose
#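 Luminescence from a BRCA1-driven firefly luciferase in MCF7 cells was the read-out, taken 15 min after substrate addition following 48 h compound exposure at 37 °C. Data were normalized to a 10 microM genistein control and DMSO vehicle.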
# ELG1 genotoxic: qHTS screen for small molecules that induce genotoxicity in human embryonic kidney (HEK293T) cells expressing luciferase-tagged ELG1 | HEK293T ELG1-luciferase reporter, luminescence, 16 h | Potency, µM (highest dose often 46 µM), inactives show top-dose activity change, positive = activation, most hits filed as activators | hit rate 1.3% among 330,000; further: % of control where 0% means no effect; nearly all actives have a fitted effect of over 60% in size
#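 Reporter readout depends on ELG1 protein level, which increases with genetic stress. After 16 hr compound exposure at 37 °C, luciferase activity was quantified using ONE-Glo.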
# p53 reactivation: qHTS assay for re-activators of p53 using a Luc reporter; hit rate 0.063% among 320,000; AID 504706, 2011; H1299 p53-A138V BP100-luciferase reporter, luminescence, 24 h; Potency, µM (titrated, usually from 92.2 µM), inactives show top-dose activity change, positive = activation, hits mostly activators; further: % of control where 0% means no effect; nearly all actives have a fitted effect of over 45% in size
#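 p53-null H1299 cells stably carrying temperature-sensitive p53-A138V and a BP100-luciferase reporter were pinned with compounds (4-point, 1:5 series) and held 24 hrs at 37 deg C. Luminescence was read 10 min after detection reagent.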
# Rab9 promoter act: qHTS Assay for Rab9 Promoter Activators. Huh7 Rab9 promoter-luciferase reporter, luminescence, 24 h. Potency, µM (top dose mostly 9.22 µM), without a hit: at the highest dose activation, negative = inhibition, usual class: activators. hit rate 2.8% among 320,000. AID 485297, 2010; further: % of control where 0% means no effect; nearly all actives have a fitted effect of over 60% in size
#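 Huh7 cells stably carrying a Rab9 promoter-luciferase reporter, 1500 cells per well in OP-MEM I with 10% FBS, treated with compound 24 hours at 37C. Luciferase activity read by luminescence after 10 minutes with Amplite reagent.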
# NPC1 prom act: qHTS Assay for NPC1 Promoter Activators | Huh7 NPC1 promoter luciferase reporter, 24 h | Potency, µM (series often up to 9.22 µM), inactives show top-dose activation, hits mostly activators | hit rate 2.4% among 320,000 | AID 485313, 2010;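 further: % of control where 0% means no effect; nearly all actives have a fitted effect of over 60% in size; reporter is driven by a mutant NPC1 promoter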
#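 Cells: Huh7 expressing luciferase under the NPC1 promoter, 1500/well. Seeded 2 h, compound added, incubated 24 h at 37 °C. Luciferase reagent, 10 min ambient, then luminescence.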
# The depositor's hits bear a star; ? = inconclusive; nt = not tested or not shown; [ ] = another dose, or the depositor's remark. Unless noted, the call rests on the fitted dose curve; in most records, active means well fitted curve in the direction sought with a large enough effect; inconclusive means small, poorly fitted or top-dose-only effect, or another doubt; inactive means no such curve, though single readings can be large; an effect the other way counts as inactive or inconclusive. Potency means the concentration at half of the fitted maximal effect. The list is partial; count on the stated rates, not on these rows.
# Under each structure: NPC1 prom act | ELG1 genotoxic | VP16 counter | FLuc modulator | MBNL1 CUG block | BRCA1 expr act | p53 reactivation | Rab9 promoter act | RORgamma inh | uPA surface inh
- OC(CN1CCC(Cc2ccccc2)CC1)c1ccccc1 (centres undefined)
→ 1% | -2% | 2% | 4% | -1% | 8% | 1% | -1% | 11% | ?
- COc1cc(/C=N/N=C(/N)c2nonc2N)cc(Br)c1OCc1ccccc1C
→ 1% | 2% | ? | -1% | 5% | -28% | 7% | -6% | ? | 0%
- O=C(COC(=O)CCC(=O)c1ccc(F)cc1)Nc1ccc(F)cc1F
→ -3% | -4% | -26% | -12% | nt | 1% | 0% | 11% | 2% | 2%
- CC(C)(C)NC(=O)NC(=O)CN1CCc2ccccc21
→ 0% | -1% | -6% | -4% | 7% | -8% | 14% | 13% | 4% | 2%
- COc1cccc(C(O)c2nc3ccccc3n2C(C)C)c1OC (centres undefined)
→ -5% | -3% | ? | -4% | -15% | -18% | -3% | 18% | -13% | -1%
- COc1ccc(CC(=O)Nc2sc3c(c2C(N)=O)CCCC3)cc1OC
→ -6% | -23% | -8% | -1% | 4% | -28% | 1% | -2% | 28% | -1%
- CC(C)CCN1CCN(C/C=C/c2ccco2)CC1CCO (centres undefined)
→ 0% | 1% | 0% | 0% | -1% | -7% | 0% | 3% | -8% | 0%
- O=[N+]([O-])c1cc(C(F)(F)F)ccc1N1CCN(S(=O)(=O)c2ccc3ccccc3c2)CC1
→ -11% | -3% | -7% | 2% | -11% | -33% | -2% | -5% | 25% | 4%
- C/C(=N\NC(=O)c1ccc(Cl)cc1)c1ccc(Br)s1
→ 16% | -5% | 1.1µM* | ? | 6% | 0% | 11% | 21% | 0.35µM* | 0%
- O=C(NC(NC(=S)Nc1c(Cl)cc(Cl)cc1Cl)C(Cl)(Cl)Cl)OCc1ccccc1 (centres undefined)
→ -1% | -1% | 5.6µM* | 0% | -7% | -76% | 3% | -9% | 7.1µM* | -7%

# Only p53 reactivation (three entries from above):
Molecule | p53 reactivation
COc1cccc(C(O)c2nc3ccccc3n2C(C)C)c1OC (centres undefined) | -3%
COc1ccc(CC(=O)Nc2sc3c(c2C(N)=O)CCCC3)cc1OC | 1%
CC(C)CCN1CCN(C/C=C/c2ccco2)CC1CCO (centres undefined) | 0%

# Carrying on.
# Under each structure: NPC1 prom act | ELG1 genotoxic | VP16 counter | FLuc modulator | MBNL1 CUG block | BRCA1 expr act | p53 reactivation | Rab9 promoter act | RORgamma inh | uPA surface inh
- CCN1CCN(CC(=O)Nc2sc3c(c2C#N)CCC3)CC1
→ -1% | 2% | -9% | 4% | 2% | 17% | 5% | -8% | 24% | 13%
- COc1ccc(CNCCC(c2ccc(OC)cc2)c2ccccc2OC)cc1 (centres undefined)
→ -6% | -8% | -6% | 2% | -12% | -31% | 4% | -11% | -7% | 0%
- CCCCCCCCCCCCC(NC(C)=O)(C(=O)OCC)C(=O)OCC
→ -2% | 6% | 4% | -2% | 0% | -34% | 1% | 9% | -1% | 3%
- FC(F)(F)c1cccc(NC(=S)Nc2cccc(Cl)c2)c1
→ 0% | -10% | ? | 1% | -7% | -76% | 3% | 2% | ? | -7%
- COc1ccc(Nc2ncccc2C(=O)Nc2ccccc2)cc1
→ 20% | -1% | -7% | ? | 6% | -10% | -21% | ? | -15% | 8%
- CN(C)CCCN(C(=O)c1ccc2c(c1)CCCC2)c1nc2c(F)cccc2s1
→ -4% | -1% | -89% | -9% | -8% | 1% | ? | 0% | ? | -3%
- O=C(N/N=C/c1ccc(OCc2ccccc2)cc1)c1cccs1
→ ? | 8% | -16% | -12% | -8% | ? | 10% | ? | 25% | 1%
- Cc1ccc(-c2cc(=O)c3cc(Cl)ccc3[nH]2)cc1
→ ? | ? | 2%[96.6 µM] | 0.54µM* | 23% | nt | 12% | 4µM* | -11%[96.6 µM] | nt
- CCCc1cc(-c2nc(N)ncc2-c2ccc3c(c2)OCCCO3)c(O)cc1OC
→ -4% | -5% | ? | 3% | 1% | -98% | -21% | -11% | -22% | 9%
- COc1ccccc1NC(=O)c1ccc(C(=O)Nc2ccccc2OC)nc1
→ 17% | -6% | -2% | 3% | 1% | -31% | nt | 1% | -10% | 4%
- Cc1cccc(NC(=O)CN2C(=O)N/C(=C\c3ccccc3OCc3ccc(C(=O)O)cc3)C2=O)c1
→ 4% | 1% | -2% | 0% | ? | 0% | -5% | 1% | -19% | -1%
- OC(CN1CCN(C(c2ccccc2)c2ccccc2)CC1)c1ccccc1 (centres undefined)
→ -6% | -1% | -6% | 0% | -6% | -1% | 1% | -2% | -8% | -1%
- N=c1oc2ccccc2cc1-c1nc(-c2ccccc2)cs1
→ 2% | 8% | -10% | 4.8µM* | 5% | -8% | ? | 12% | ? | 8%
- CN1C(=O)/C(=C/c2ccccc2OCc2cccc(F)c2)NC1=S
→ -1% | 0% | 3.2µM* | 1% | 10% | -31% | 0% | -1% | 4µM* | 0%
- COc1cccc(/C=N/n2nnc3c(cnn3-c3ccccc3)c2=O)c1
→ 0% | -5% | 0% | 6% | 1% | -2% | 1% | -10% | 17% | -2%
- Cc1cc(NC(=O)CN2C(=O)S/C(=C\c3ccccc3)C2=O)no1
→ 6% | ? | -1% | 3% | 5% | -1% | 4% | -3% | 1% | 14%
- CC(C)COc1nc2c(c(=O)n(C)c(=O)n2C)n1C
→ 0% | 0% | 2% | 4% | -11% | -1% | 2% | -4% | -22% | -8%
- C=CCCCCCCCCC(=O)N1CCN(c2cc3c(cc2F)c(=O)c(C(=O)O)cn3CC)CC1
→ 0% | 0% | 5% | 1% | -3% | 16% | -4% | 0% | 0% | -2%
- Cc1ccc(NC(=S)NC(NC(=O)c2ccccc2C)C(Cl)(Cl)Cl)c(C)c1 (centres undefined)
→ -1% | 1% | ? | 2% | -7% | -61% | 6% | 3% | ? | -2%
- CCCc1cc(Nc2ccccc2C)n2ncnc2n1
→ 3% | 4% | -9% | 1% | -8% | -14% | 5% | -1% | 0%[1.91 µM] | -10%
- O=C(NC(NC(=S)Nc1ccccc1Cl)C(Cl)(Cl)Cl)c1cccc(Cl)c1 (centres undefined)
→ 5% | -8% | 13µM* | -1% | 17% | -95%[inhibitor] | 8% | -1% | ? | -10%
- N#Cc1ccc(-c2ccccc2)nc1Sc1ccc(F)cc1
→ -7% | 1% | -11% | 2% | 4% | -18% | 0% | 0% | -5% | nt
- CCOC(=O)/C=c1\s/c(=C\c2ccc(C(F)(F)F)cc2)c(=O)n1CC(=O)NCc1ccco1
→ 7% | ? | -23% | -1% | -6% | -61% | -6% | 0% | -13% | -4%
- Cc1ccc(C(=O)NCC(=O)Nc2cccc(S(=O)(=O)NC3=NCCCCC3)c2)cc1C
→ -6% | -1% | 21% | -18% | -26% | 0% | 1% | -7% | -3% | 2%
- CC(C)C(=O)Nc1ccc(-c2csc(-c3ccccc3)n2)cc1
→ 2.2µM* | 22% | 13% | ? | -10% | 5µM* | 12% | ? | 16% | -1%
- O=C(CSc1nc(-c2ccccc2)cs1)Nc1nccs1
→ 3% | 0% | -29% | -1% | 0% | -3% | 13% | 15% | ? | 4%
- COc1ccc(CNCc2cc3c(cc2[N+](=O)[O-])OCO3)cc1
→ 10% | 0% | 0% | ? | ? | 5% | 1% | -9%[1.84 µM] | 12% | 3%
- Cc1cc(C)cc(NC(=O)CSc2nnc(NC(=O)C3CC3)s2)c1
→ 2% | 8% | 2% | 1% | 2% | 3% | -2% | -3% | -14% | -2%
- CC(NC(=O)COC(=O)c1cn(-c2ccccc2)nc1-c1cccs1)c1ccccc1 (centres undefined)
→ 1% | -7% | 0% | ? | 211%[activator] | -4% | -2% | 0% | ? | nt
- O=C(NC1=NCCS1)c1sc2cc(Cl)cc(Cl)c2c1Cl
→ 0% | 3% | ? | -13% | 4% | -37% | 3% | 2% | 6.3µM* | 12%
- O=C(c1cnn(C(=O)c2ccc(O)cc2)c1)c1ccccc1O
→ 2% | -4% | ? | 3.8µM* | -8% | nt | 21% | 0% | -40% | nt
- COc1ccc(OCCCC(=O)Nc2ccc3c(c2)OCCO3)cc1
→ -3% | 0% | -8% | -18% | -7% | 22% | 10% | -5% | -9% | 9%

# Single values from above:
# COc1ccc(CNCc2cc3c(cc2[N+](=O)[O-])OCO3)cc1 @ VP16 counter = 0%
# CCOC(=O)/C=c1\s/c(=C\c2ccc(C(F)(F)F)cc2)c(=O)n1CC(=O)NCc1ccco1 @ BRCA1 expr act = -61%
# COc1ccc(OCCCC(=O)Nc2ccc3c(c2)OCCO3)cc1 @ uPA surface inh = 9%
# O=C(CSc1nc(-c2ccccc2)cs1)Nc1nccs1 @ FLuc modulator = -1%
# CC(C)C(=O)Nc1ccc(-c2csc(-c3ccccc3)n2)cc1 @ VP16 counter = 13%
